Screening data from PubChem.
Vaccinia mCherry: inhibitors of vaccinia virus infection (mCherry reporter signal); Vaccinia virus mCherry reporter infection, fluorescence; about a quarter of the inactives have no number; Potency, µM (doses to about 36.5 µM), inactives show at the top dose activity change, negative = inhibition, usual class: inhibitors; hit rate 0.63% among 310,000; active = well fitted inhibition curve with a large enough effect; inconclusive = small, poorly fitted or top-dose-only effect; inactive = no such curve, though single readings can be large or run the other way; tested in A549 cells; further: nearly all actives have a fitted effect of over 35% in size; inactives centre near -10
VACV Venus inh: inhibitors of vaccinia virus (Venus reporter) | Potency, µM (titrated, usually from 36.5 µM), inactives show at the highest dose activity change, negative = inhibition, actives largely listed as inhibitors | hit rate 0.46% among 330,000 | Vaccinia virus Venus reporter expression, fluorescence | AID 720580; active means well fitted inhibition curve with a large enough effect; inconclusive means small, poorly fitted or top-dose-only effect; inactive means no such curve, though single readings can be large or run the other way; tested in A549 cells; further: nearly all actives have a fitted effect of over 30% in size; inactives centre near -10
* hit, by the source's call; i = inactive; u = inconclusive; x = no result given; & = joins results of further samples; [ ] = dose if it differs, or a comment. On the % scale 0 is the no-effect control and ±100 the full control effect; potency means the concentration at half of the fitted maximal effect.

Start of the data: the first six records, ahead of the listing:
SMILES	Vaccinia mCherry	VACV Venus inh
CCCCNC(=O)CC1N=C2c3ccccc3N=C(SCC(=O)Nc3cccc(C)c3)N2C1=O (stereo not given)	-14%	-1%
Cc1cc(C)n2c(NC3CCCCC3)c(-c3ccc(F)cc3)nc2n1	-10%	-5%
N#CC(C(=O)Nc1ccc(Cl)c(Cl)c1)=C1Nc2ccccc2N1	u	-28%
CC(C)[C@H](NC(=O)c1ccco1)C(=O)NCc1ccccc1	-11%	2%
Cc1cccc(NC(=O)COC(=O)c2ccccn2)c1	i	3%
O=C(CSc1nc2ccccc2c(=O)n1Cc1ccco1)Nc1cccc(O)c1	-14%	0%

The whole of this part (from the top)
SMILES	Vaccinia mCherry	VACV Venus inh
CCCCNC(=O)CC1N=C2c3ccccc3N=C(SCC(=O)Nc3cccc(C)c3)N2C1=O (stereo not given)	-14%	-1%
Cc1cc(C)n2c(NC3CCCCC3)c(-c3ccc(F)cc3)nc2n1	-10%	-5%
N#CC(C(=O)Nc1ccc(Cl)c(Cl)c1)=C1Nc2ccccc2N1	u	-28%
CC(C)[C@H](NC(=O)c1ccco1)C(=O)NCc1ccccc1	-11%	2%
Cc1cccc(NC(=O)COC(=O)c2ccccn2)c1	i	3%
O=C(CSc1nc2ccccc2c(=O)n1Cc1ccco1)Nc1cccc(O)c1	-14%	0%
Cc1ccc2c(C)nc(Nc3nc(CSc4nnnn4-c4ccccc4)cc(=O)[nH]3)nc2c1	u	u
CCCCC/C=C\C/C=C\C/C=C\C/C=C\CCCC(=O)O[C@H](COCCCCCCCCCCCCCCCC)COP(=O)([O-])OCC[N+](C)(C)C	i[3.33 µM]	-14%[3.33 µM]
Cc1nn(C)cc1CNC(=O)c1cnn2c1NC(c1ccc(Br)cc1)CC2C(F)(F)F (stereo not given)	u	-30%
COc1ccc(/C=C(\NC(=O)c2ccccc2)C(=O)NCCC(=O)O)cc1	0%	-1%
O=C(NCc1ccc(F)c(F)c1)c1cccc2c(-c3cccnc3)coc12	i	-17%
Cc1ccc(NC(=O)c2cc(S(=O)(=O)N3CCc4ccccc43)ccc2F)cc1Cl	-6%	-22%
Cc1ccc(CN2CCN(CC(=O)NC(C)c3ccc4c(c3)OCCO4)C2=O)cc1 (stereo not given)	-12%	-19%
CCN(CC)S(=O)(=O)c1ccc2oc(C(=O)NCCCN3CCOCC3)c(C)c2c1	-21%	-14%
CCOC(=O)N1CCC(NC(=O)c2cc(C(=O)Nc3cccc(C(F)(F)F)c3)ccc2CO)CC1	i	u
CCOC(=O)C1=CN(Cc2cccc(Br)c2)S(=O)(=O)NC1C (stereo not given)	-24%	-4%
Cc1onc(-c2ccccc2)c1C(=O)Nc1ccccc1C#N	i	-5%&-1%
CC(C)CNC(=O)C(=O)NCCC1CCCCN1S(=O)(=O)c1cccs1 (stereo not given)	-4%	-21%
COc1ccc(/C=C/C(=O)Nc2nc(-c3cccs3)ns2)cc1	8%	-7%
Cc1ccc(Cl)cc1NC(=O)C1CCCCC1C(=O)O (stereo not given)	-16%	-9%
CCN(CC(=O)Nc1ccccc1C(F)(F)F)C(=O)c1ccc(NC(=O)c2cccs2)cc1	i	-13%
CCN1CC2C3CCC(C)(O3)C2C1 (stereo not given)	0%	14%
Cc1cc(/C=N/n2cnnc2)c(C)n1-c1ccc(OCc2ccccc2F)cc1	-20%	u
C=Cc1ccc(Cn2c(C(=O)O)c(CNC3CCCCC3)c3ccc(C)cc32)cc1	2%	-6%
CC(C)NC(=O)CN1C(=O)c2cccnc2Sc2ccccc21	1%	-6%
SMILES	Vaccinia mCherry	VACV Venus inh
COC(=O)c1cccc(NC(=O)C2CCCN2C(=O)c2cccs2)c1 (stereo not given)	-18%	-17%
COC(=O)C1=C(C)N(c2ccc(OC)cc2)C(C)=C(C(=O)OC)C1c1ccc(OC)cc1	i	-12%
CCCCn1c(N)c(NCCC)c(=O)[nH]c1=O	-18%	-6%
C#CCN1C(=O)S/C(=C\c2ccc(N3CCOCC3)cc2C)C1=O	-6%	-1%
Cc1cc(C)nc(NC2=NCCS2)n1	x	-10%
CC(=O)Oc1cc(C(=O)OCC(=O)N2CCc3ccccc3C2)cc(OC(C)=O)c1OC(C)=O	i	-10%
CCOC(=O)CNC(=S)N(Cc1ccco1)Cc1ccccc1Cl	i	-2%
Cc1ccc(-c2c[n+](Cc3ccc(Cl)cc3)c3n2CCC3)cc1	i	-14%
CCCOc1nc2c(c(=O)n(C)c(=O)n2C)n1C	-2%	-6%
Cc1nnc(NC(=O)CSc2nnc(C)n2Cc2ccccc2)s1	-15%	-15%
c1ccc2c(N3CCOCC3)nc(-c3ccncc3)nc2c1	x	17%
O=C(NCc1ccccc1Cl)C1CCN(C(=O)c2ccc(F)cc2)CC1	-3%	-14%
CCc1ccc(Nc2nnc(SCC(=O)Nc3sccc3C(N)=O)s2)cc1	-28%	-24%
COc1ccc(-n2nc3c(c2NC(=O)CCCl)CSC3)cc1	i	-5%
Cc1ccn(CC(=O)NC2CC(C)(C)Cc3c2cnn3-c2ccc(F)cc2)n1 (stereo not given)	-16%	-17%
CCCCc1ccc(S(=O)(=O)N/N=C(/C)c2ccncc2)cc1	-11%	-14%
CSc1ccc(NC(=O)c2cccnc2)cc1C#N	-1%	-13%
C#Cc1ccc([C@H]2C=C(C(=O)N3CCN(Cc4ccc5c(c4)OCO5)CC3)O[C@@H](OCC)[C@@H]2CCCO)cc1	u	u
O=C(Nc1ccccc1N1CCOCC1)c1ccc2nc[nH]c2c1	-16%	-19%
O=C(O)c1cc(C(=O)O)cc(-c2ccc(/C=c3/sc4nc5ccccc5n4c3=O)o2)c1	i	-10%
CC(=O)CCSc1nnc(-c2cccc(S(=O)(=O)N3CCOCC3)c2)o1	-9%	-8%
COC(=O)c1ccc(C(=O)OC)c(NC(=S)N2CCN(c3cc(Cl)ccc3C)CC2)c1	i	6%
COc1ccc(NC(=O)CN(c2cc(C)cc(C)c2)S(=O)(=O)c2c(C)n[nH]c2C)cc1	4%	-25%
CCN(CC)CCNC(=O)C1(c2ccccc2)CCCCC1	-18%	-1%
CC(C)(C)c1ccc(-c2nnc(-c3ccccc3NC(=O)c3ccc(F)cc3F)o2)cc1	3%	-2%
SMILES	Vaccinia mCherry	VACV Venus inh
O=C(OCc1ccc(Cl)cc1Cl)c1ccncc1	i	-14%
CCc1cc[n+](C(C(=S)Nc2cccc(C)c2)=C([O-])c2ccc(C)c([N+](=O)[O-])c2)cc1	-16%	-18%
COc1cccc(-c2cnc3c(NC(C)=O)cc(-c4cccc(NC(C)=O)c4)cn23)c1	i	-14%
COc1ccc(OC)c(NC(=O)c2nc(S(=O)(=O)Cc3ccc(F)cc3)ncc2Cl)c1	u	u
O=c1[nH]c(=S)n(C2CC2)c(O)c1C=NCc1cccnc1	i	0%
CC1=C(C(=O)N(C(C)C)C(C)C)CC(CC(=O)NCCCN(C)C)C(=O)N1Cc1ccc(C(C)(C)C)cc1 (stereo not given)	-3%	-9%
COC(=O)c1ccc(NC(=S)NC2CC(C)(C)NC(C)(C)C2)cc1	i	-19%
COC(=O)c1c(-c2ccc(C)cc2)csc1NC(=S)NC(=O)c1cc(OC)cc(OC)c1	-17%	-14%
COc1ccc(C(=O)ON=C(C)c2nccs2)cc1	16%	-2%
Cc1ccc(N=C(N)N=C(N)N)c(C)c1	-9%	-11%
CCN(CC)CCN1C(=O)C(O)=C(C(=O)c2ccc(C)o2)C1c1ccccn1 (stereo not given)	-11%	-5%
CC(=O)N1C(O)CC(C)N1c1ccccc1 (stereo not given)	-11%	-4%
Cc1ccc(C)c(NC(=O)Cn2c(=O)n(Cc3ccc4c(c3)OCO4)c(=O)c3ccc(C(=O)NC4CCCCC4)cc32)c1	3%	0%
Cc1ccn2c(=O)nc(SCC(=O)OCc3ccccc3)nc2c1	-13%	4%
CC1(C(=O)NC2CCN(Cc3ccccc3)CC2)CCN1Cc1ccc2ccccc2c1 (stereo not given)	-7%	-18%
Cc1cc(NC(=O)c2ccc(Cl)c(S(=O)(=O)N3CCCCC3)c2)no1	-20%	-16%
Cc1ccc(NC(=O)CN2C(=O)S/C(=C\c3ccc(-c4cccc(C(=O)O)c4C)o3)C2=O)cc1C	-2%	8%
Cn1nc(C(C)(C)C)cc1N1C(=O)CCC1(C)C(=O)NC1CCCCC1 (stereo not given)	i	-1%
Cc1ccc(N2C(=O)C(NC(=O)c3ccccc3F)(C(F)(F)F)C3=C2CC(C)(C)CC3=O)cc1 (stereo not given)	-14%	-19%
CCOC(=O)N1CCN(S(=O)(=O)c2cc(OCC)ccc2OCC)CC1	-15%	-11%
O=C1C=C(c2c(O)ccc3ccccc23)c2ccccc2C1=O	10µM*	11µM*
CCOc1ccc(C(C(=O)NCC2CCCO2)N(C(=O)c2snc(C(N)=O)c2N)c2ccc(F)cc2)cc1 (stereo not given)	-8%	-9%
CNC(=S)N(CCc1ccc(S(N)(=O)=O)cc1)C1CC(=O)N(c2ccccc2F)C1=O (stereo not given)	0%	1%
Nc1nccc(-c2cc(-c3ccc(Cl)cc3Cl)no2)n1	-19%	-25%
Fc1ccccc1C(c1nnnn1Cc1ccc2c(c1)OCO2)N1CCN(Cc2ccccc2)CC1 (stereo not given)	u	u

Shown bar-delimited: part of the list above.
mol | Vaccinia mCherry | VACV Venus inh
CCOc1ccc(C(C(=O)NCC2CCCO2)N(C(=O)c2snc(C(N)=O)c2N)c2ccc(F)cc2)cc1 (stereo not given) | -8% | -9%
O=C1C=C(c2c(O)ccc3ccccc23)c2ccccc2C1=O | 10µM* | 11µM*
CC1=C(C(=O)N(C(C)C)C(C)C)CC(CC(=O)NCCCN(C)C)C(=O)N1Cc1ccc(C(C)(C)C)cc1 (stereo not given) | -3% | -9%

Later entries:
SMILES	Vaccinia mCherry	VACV Venus inh
CCOC(=O)c1sc(N)c(C(=O)Nc2ccccc2OC)c1C	u	-27%
O=S(=O)(NCC(c1ccco1)N1CCOCC1)c1ccc(Br)cc1 (stereo not given)	-10%	-6%
CSc1nc2ccc(NC(=O)c3cc4ccccc4o3)cc2s1	-3%	-23%
CCCc1cc(=O)[nH]c(SCC(=O)N2C(C)CCCC2C)n1 (stereo not given)	-15%	-1%
O=C(CCN1CCN(c2ccccc2)CC1)N/N=C/c1ccccc1OC(F)F	u	-18%
CCC(C(=O)Nc1cccc(Cl)c1C)n1nc(-c2ccc(C)cc2)ccc1=O (stereo not given)	-8%	-8%
CN1CCc2c(sc(NC(=O)C3COc4ccccc4O3)c2C(N)=O)C1 (stereo not given)	-3%	-26%
CC(=O)Nc1ccc(Oc2cc(N)cc([N+](=O)[O-])c2)cc1	-15%	-13%
Cc1noc(Cn2c(=O)c3ccccc3n(CC(=O)Nc3ccc(C(C)C)cc3)c2=O)n1	i	-15%
Cc1nnc(NC(=O)CSc2ccc3nnc(-c4ccccn4)n3n2)s1	-19%	-5%
COc1ccc(NC(=O)c2cnc(Nc3ccc(C)c(Cl)c3)c3ccccc23)cc1OC	u	-28%
Cc1ccc(Cc2nc3ccccc3[nH]2)cc1	-10%	-7%
CN(C(=O)COC(=O)/C=C/c1cccc([N+](=O)[O-])c1)C1CCS(=O)(=O)C1 (stereo not given)	1.8µM*	2.8µM*
Cc1cc(C)n(CCc2nc3c4ccccc4nc(SCc4ccc(Cl)cc4)n3n2)n1	-4%	11%
CCOC(=O)Cc1ccc(NC(=O)n2ncc3c(C)cccc32)cc1	-10%	-10%
C[C@@H]1CN([C@H](C)CO)C(=O)CCCn2nncc2CO[C@H]1CN(C)C(=O)Oc1ccc2ccccc2c1	-11%	-9%
CCOC(=O)C1=CN(Cc2cccc(-c3ccc(F)cc3)c2)S(=O)(=O)N(C)C1C (stereo not given)	-12%	-27%
COc1ccc(C(=O)CSc2nnc(CNC(=O)c3ccccc3)n2C)cc1	i	-15%
Nc1c(Cl)ncnc1N1CCOCC1	i	-10%
COc1ccc(-n2nc3c(c2NC(=O)COc2ccccc2F)CS(=O)(=O)C3)cc1	i	-14%
S=c1nc(-c2ccc(Br)cc2)oc2c1CCCC2	-14%	-5%
CCN1CCN(Cc2ccc(NC(=O)Nc3cccs3)cc2)CC1	x	-13%
Cc1ccc(NC(=O)C(=O)NCCOc2ccc(Cl)cc2)c(C)c1	-24%	-21%
CCOC(=O)C1(C)C=C(Nc2ccc(OC)cc2)C(=O)N1c1ccc(OC)cc1 (stereo not given)	-13%	-11%
C=CCC(C#Cc1ccccc1)[N+](C)(C)CC=C (stereo not given)	x	u

The list goes on, overlapping the part above by 2 compounds.
SMILES	Vaccinia mCherry	VACV Venus inh
CCOC(=O)C1(C)C=C(Nc2ccc(OC)cc2)C(=O)N1c1ccc(OC)cc1 (stereo not given)	-13%	-11%
C=CCC(C#Cc1ccccc1)[N+](C)(C)CC=C (stereo not given)	x	u
Cc1nc(N2CCN(C)CC2)c2sc(=S)n(-c3ccccc3)c2n1	-15%	-17%
Cc1cccc(C(=O)NNC(=O)C(=O)NC(C)(C)C)c1	-11%	2%
COc1ccc(OC)c(S(=O)(=O)N2CCC(n3c(C)nc4cccnc43)CC2)c1	-11%	-5%
Cc1ccc2nc(C(=O)O)c(C(=O)O)nc2c1	-15%	-12%
NS(=O)(=O)c1ccc(NC(CNS(=O)(=O)c2ccccc2)c2ccccc2)cc1 (stereo not given)	-3%	-20%
CCC(C)NC(=O)c1nn(-c2ccc(C)cc2)nc1CO (stereo not given)	5%	-4%
COc1ccc(/C=C/C(=O)c2oc3ccc(F)cc3c2C)cc1	-12%	-14%
O=C(CCCOc1ccc(Cl)cc1Cl)NNC(=O)C1CCC1	u	-27%
CSc1ccc(CCNC(=O)CCCn2c(=O)c3cccn3c3ccccc32)cc1	-9%	-11%
